Beta cell apopt – blocks beta cell apoptosis. INS-1E cytokine-induced death, ATP luminescence, 48 h; percent of positive-control rescue, neutral wells zero. protection from apoptosis, % (concentration not given with the values). hit rate 0.8% among 300,000;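 active = all replicates at 75% or more, or half of them and the mean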;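 also: 0% = cytokine-treated negative control wells and 100% = positive control rescue; higher means more ATP so stronger rescue from cytokine killing; wells of about 40 µL received 100 nL stock; the first replicate is given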
FGF22 binding – binders of recombinant human FGF22 by thermal shift. AID 651658. Q9HCT0. SYPRO orange fluorescence; percent of sucrose octasulfate shift, DMSO zero. calls only at 9.99 µM. hit rate 1.5% among 340,000;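 active = melting point raised past a set limit in the mean and every replicate; three in four hits are not shown here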
Target sequence (Q9HCT0 whole entry, looked up): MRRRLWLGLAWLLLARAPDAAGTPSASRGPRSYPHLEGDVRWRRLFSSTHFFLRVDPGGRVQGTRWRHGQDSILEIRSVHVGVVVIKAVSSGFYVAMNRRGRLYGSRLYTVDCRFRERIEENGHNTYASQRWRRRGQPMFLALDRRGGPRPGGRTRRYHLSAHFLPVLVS
T cruzi repl – blocks replication of Trypanosoma cruzi; AID 1885; T. cruzi beta-gal in NIH3T3, luminescence, 90 h; inhibition, % (concentration not given with the values); hit rate 1.4% among 300,000;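 active = mean inhibition across valid replicates above about 55%, limit read from the data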;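 also: signal also drops with host cell toxicity which is not excluded here; 0% = plate median of DMSO wells and 100% = zero luminescence signal; higher percent means less beta-gal luminescence so fewer parasites; stock transfer was 50 nL into about 50 µL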
UCH37 DUB inh – blocks the human deubiquitinase UCH37; Q9Y5K5; purified proteasome/UCH37, Ub-AMC cleavage fluorescence; inhibition, % (concentration not given with the values); hit rate 0.33% among 330,000;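 active = mean of two replicates above 20%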;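 also: 0% = compound-free wells with enzyme and 100% = wells lacking proteasome; stock transfer was 100 nL into about 20 µL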
Target sequence (Q9Y5K5 whole entry, looked up): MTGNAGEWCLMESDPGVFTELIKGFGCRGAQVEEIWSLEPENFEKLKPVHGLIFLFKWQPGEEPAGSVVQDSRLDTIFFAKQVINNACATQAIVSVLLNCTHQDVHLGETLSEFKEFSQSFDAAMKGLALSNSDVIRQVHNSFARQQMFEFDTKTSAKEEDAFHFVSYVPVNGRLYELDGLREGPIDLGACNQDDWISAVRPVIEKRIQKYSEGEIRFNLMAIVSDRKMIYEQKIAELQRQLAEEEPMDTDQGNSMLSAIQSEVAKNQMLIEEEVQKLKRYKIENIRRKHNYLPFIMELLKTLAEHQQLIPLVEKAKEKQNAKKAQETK
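Test system – human UCH37 enzyme supplied as purified proteasome complex · Incubation – 30 min preincubation with enzyme, 25 min cleavage at room temperature · Detection – AMC fluorescence from Ub-AMC cleavage, excitation 355 nm, emission 460 nm · Benchmarks – no-proteasome wells (full inhibition) and compound-free wells (no inhibition)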
A1 inh – inhibitors of the anti-apoptotic protein A1, read as caspase activation | MEF A1-2A-BIM cells, Caspase-Glo 3/7 luminescence, 3 h; percent of clofoctol response, vehicle zero | caspase activation, % (no concentration beside the values) | hit rate 0.066% among 330,000 | AID 2462;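 active = over half of replicate activation scores above 10%, or exactly half above 10 with the replicate mean above 10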;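 also: wells of about 30 µL received 50 nL stock; many hits fall short of the cut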
rRNA inh HTS – inhibits bacterial ribosomal RNA function over humanized ribosomes. E. coli WT GFP vs humanized-ribosome RFP mutants, fluorescence, 24 h; hits give low values; DMSO median 0, no signal -100. GFP signal change (wild-type ribosome), % (concentration not given with the values). hit rate 1.6% among 350,000. AID 720706;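 active = significant combined selectivity score with lowered wild-type GFP, culture density cut under 30%, mutant RFP and density less affected; inactive = any of these conditions unmet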; also: one replicate is shown; some compounds called inactive have numbers as strong as hits
AF4-AF9 inh – blocks AF4 peptide binding to human AF9. inhibition, % at 10 µM. hit rate 0.47% among 350,000. AlphaScreen, biotin-AF4 peptide binding to FLAG-AF9;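 active = every replicate reaching a set inhibition limit, whatever the replicate mean, cut at about 25% in these data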;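 also: 0% = plate neutral control median and 100% = total signal loss; the record names both 10 and 1 µM as test concentration; the first replicate is given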
Target sequence (P42568 whole entry, looked up): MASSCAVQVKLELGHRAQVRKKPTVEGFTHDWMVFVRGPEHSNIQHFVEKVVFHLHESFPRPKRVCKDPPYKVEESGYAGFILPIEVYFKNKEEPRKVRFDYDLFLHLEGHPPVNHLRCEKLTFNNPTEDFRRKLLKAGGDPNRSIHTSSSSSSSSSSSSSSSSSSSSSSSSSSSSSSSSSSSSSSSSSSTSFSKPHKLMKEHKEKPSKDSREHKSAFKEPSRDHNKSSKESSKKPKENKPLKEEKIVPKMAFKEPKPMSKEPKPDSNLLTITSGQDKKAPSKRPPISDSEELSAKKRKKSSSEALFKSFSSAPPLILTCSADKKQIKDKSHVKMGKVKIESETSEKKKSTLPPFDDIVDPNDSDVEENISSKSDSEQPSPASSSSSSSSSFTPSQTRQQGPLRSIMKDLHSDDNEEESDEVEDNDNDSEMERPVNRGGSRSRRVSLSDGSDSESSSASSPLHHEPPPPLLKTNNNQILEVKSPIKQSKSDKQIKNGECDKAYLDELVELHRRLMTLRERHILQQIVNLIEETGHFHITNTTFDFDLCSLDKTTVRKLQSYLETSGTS
Ecoli growth – blocks Escherichia coli growth; OD600, 23 h; hits give low values; OD600 absorbance (no concentration beside the values); hit rate 0.21% among 330,000; AID 1053175;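 active = OD600 absorbance below the run mean of sample wells minus 3.6 SD, in any replicate, cut at about 0.56 in these data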;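 also: stock transfer was 300 nL into about 60 µL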
rRNA inh HTS OD600 – recorded beside rRNA inh HTS, whose call it bears; OD600 change, %; measured here: OD600 growth;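 optical density of the mix in the first replicate; 0 = DMSO median and -100 = no signal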
rRNA inh HTS RFP – also measured in rRNA inh HTS; calls as there; RFP signal change, %; measured here: RFP humanized mutant strains;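 first replicate; 0 = DMSO median and -100 = no signal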
Active calls of the source: *; i = inactive; x = no result given. Not all compounds are listed (hit frequency here may not be typical).

Results follow in this order: AF4-AF9 inh | Beta cell apopt | rRNA inh HTS | rRNA inh HTS RFP | FGF22 binding | A1 inh | UCH37 DUB inh | Ecoli growth | T cruzi repl | rRNA inh HTS OD600
COc1ccc(OC)c(S(=O)(=O)N2CCC(C(=O)NCc3ccccc3)CC2)c1
    x | -1 | x | x | x | 0.5 | 1.6 | 0.73 | -4 | x
N#CC1=C(N)OC2=C(C(=O)CC(c3ccco3)C2)C1c1ccc(OCc2c(F)cccc2Cl)cc1 (stereo not given)
    x | 2 | x | x | x | 0.1 | 32* | 0.73 | 6 | x
CN1CCN(c2nc(Nc3ccc(F)cc3)nc(Nc3ccc(F)cc3)n2)CC1
    18 | 14 | -56 | -18 | i | 0.4 | 2.9 | 0.63 | 45 | -79
CCOc1ccc2c(c1)C(=O)c1cc(OCC(=O)O)ccc1-2
    -10 | -4 | 7 | -5.7 | i | -1.1 | 6.5 | 0.69 | 8 | -1
CCOC(=O)c1cnn(-c2ccccc2)c1-n1cccc1C(=O)C(=O)N(C)C
    -2.5 | 0 | 7 | 1.6 | i | 0.3 | 2.4 | 0.65 | -8 | -8
Cn1c(Sc2ccc(Cl)cc2)c(C=O)c2ccccc21
    x | -10 | x | x | x | -1.5 | -0.5 | 0.71 | 21 | x
Cc1cc(C)c2c(=O)[nH]n(C(C)C)c2n1
    x | 4 | x | x | x | 0.6 | 0.0 | 0.72 | -19 | x
CCCS(=O)(=O)N1CCN(C(=O)CCC2CCCC2)CC1
    x | 4 | x | x | x | 0.4 | 1.5 | 0.69 | -14 | x
Cc1cnc(C(=O)OCc2cc(=O)n3c(C)cccc3n2)cn1
    -12 | -4 | 6 | 3.5 | i | -0.2 | 8.5 | 0.72 | x | 5
CC[C@H](C)[C@@H]1NC(=O)c2cc([N+](=O)[O-])cc(I)c2NCC[C@@H](C(N)=O)NC(=O)[C@H](CCCN=C(N)N)NC1=O
    23 | 0 | -2 | 0.3 | i | -0.4 | -0.5 | 0.76 | x | 6
CCOc1ccc(NCc2cccn2-c2nnc(N3CCC(C(=O)NCCCN4CCCCC4)CC3)s2)cc1
    33* | 2 | 4 | 6.6 | i | 0.2 | 0.9 | 0.7 | 0 | 1
COC(=O)C1CCN(C(=O)c2cc3c(=O)n4cccc(C)c4nc3n2Cc2ccccc2)CC1
    0.5 | -1 | 6 | -0.8 | i | 0.3 | -134 | 0.7 | 16 | 10
CN(C)N(C(=O)c1cc(-c2cccs2)nn1-c1ccccc1)C1CCS(=O)(=O)C1 (stereo not given)
    -9.3 | x | 7 | -2.4 | i | x | -3.9 | 0.7 | x | 8
CC(C(=O)NCc1ccccc1)N(Cc1ccccc1Cl)C(=O)c1snc(C(N)=O)c1N (stereo not given)
    -1.7 | -8 | -12 | 1.0 | i | 0.2 | -21 | 0.66 | 8 | -32
Cc1ccc(NC(=O)C2C3C=CC4(O3)C2C(=O)N(CCCN2CCCC2)C4C(=O)NC2CCCCC2)cc1Cl (stereo not given)
    2.8 | 0 | 8 | -0.9 | i | 0.3 | 2.5 | 0.67 | 4 | 7
CCc1cccc(C)c1NC(=S)N(CCCN1CCN(C)CC1)Cc1cccs1
    0.7 | -8 | 7 | 2.0 | x | -0.8 | -6.8 | 0.69 | 0 | -3
O=C(O)CS(=O)(=O)c1ccc(C(F)(F)F)cn1
    1.8 | x | 9 | 0.8 | i | 0.6 | 5.0 | 0.7 | -8 | 1
COc1ccc(Nc2ccc(C(=O)O)cc2[N+](=O)[O-])cc1
    -3.4 | 1 | 2 | 1.4 | i | -0.2 | 6.7 | 0.68 | -8 | 1
O=C(CNC(=O)c1ccc(Cl)c([N+](=O)[O-])c1)OC1CCCCC1=O (stereo not given)
    -2.2 | -3 | 0 | -4.5 | i | 0.3 | 4.7 | 0.67 | -1 | 0
COc1ccc(C(=O)N(C)C2CCCN(Cc3ccccc3F)C2)cc1OC (stereo not given)
    -2.9 | -1 | 13 | 3.4 | i | 0.0 | 4.3 | 0.67 | -6 | 9
COc1ccc(CCN2C(=O)c3ccncc3C2=O)cc1OC
    x | -4 | x | x | x | -0.3 | 4.1 | 0.8 | -2 | x
CC(NC(=O)C1CCN(S(=O)(=O)c2ccccc2)CC1)c1ccccc1 (stereo not given)
    -1.2 | x | 2 | 0.4 | i | 0.0 | 2.7 | 0.7 | 1 | -1
O=c1cc(-c2ccncc2)oc2c1ccc1ccccc12
    -0.4 | x | -6 | -2.5 | i | 0.2 | -107 | 0.61 | 13 | -5
CCOC(=O)O[C@]1(C(=O)COC(=O)CC)CC[C@H]2[C@@H]3CCC4=CC(=O)C=C[C@]4(C)[C@H]3[C@@H](O)C[C@@]21C
    6.9 | -8 | x | x | i | 0.3 | 5.8 | x | x | x
CC(C)c1ccc(NC(=O)C(c2ccc3c(c2)OCO3)N2CCN(C(=O)c3ccco3)CC2)cc1 (stereo not given)
    x | 1 | -3 | -6.5 | x | 0.7 | 6.2 | 0.69 | 7 | -6
COc1ccc(N2Nc3n[nH]c(N)c3N2)cc1
    x | -10 | x | x | x | -0.8 | 10 | 0.71 | 0 | x
Cc1cc(C)c(C#N)c(SCc2ccc(C#N)cc2)n1
    x | -1 | x | x | x | 0.0 | 2.5 | 0.79 | -8 | x
COC(=O)c1cc(C(=O)c2cc(Cl)ccc2O)coc1=N
    -1.0 | 5 | 12 | -0.1 | i | -0.7 | -4.7 | 0.7 | -3 | 7
CC1(C)Cc2c(C#N)c(NCCc3ccccc3)nc(-c3ccco3)c2CO1
    x | -6 | x | x | x | 0.3 | -58 | 0.73 | 35 | x
Cc1nc2sc3c(c2c(=O)[nH]1)CCC3
    x | -1 | x | x | x | -0.5 | 1.3 | 0.7 | -5 | x

Quoted from the listing.
O=c1cc(-c2ccncc2)oc2c1ccc1ccccc12 in T cruzi repl has 13
COc1ccc(CCN2C(=O)c3ccncc3C2=O)cc1OC in Beta cell apopt has -4
Cc1nc2sc3c(c2c(=O)[nH]1)CCC3 in T cruzi repl has -5

Following part:
Results follow in this order: AF4-AF9 inh | Beta cell apopt | rRNA inh HTS | rRNA inh HTS RFP | FGF22 binding | A1 inh | UCH37 DUB inh | Ecoli growth | T cruzi repl | rRNA inh HTS OD600
Cc1cccc(N2C(=O)CC(N3CCN(c4ccccc4)CC3)C2=O)c1 (stereo not given)
    0.3 | -3 | 1 | -4.1 | i | 1.3 | 6.7 | 0.68 | -17 | 2
COc1ccccc1OCCNC(=O)c1cc([N+](=O)[O-])cc([N+](=O)[O-])c1
    4.2 | -8 | 2 | 11 | x | -0.5 | 0.7 | 0.58 | 72* | -4
COc1ccc(N2CCN(C(CNC(C)=O)c3ccc4c(c3)OCO4)CC2)cc1 (stereo not given)
    0.5 | -4 | 12 | 0.4 | i | -0.6 | 1.2 | 0.68 | 14 | 10
O=C(NCc1ccc(Cl)cc1Cl)C1CC(=O)N(Cc2ccccc2)C1 (stereo not given)
    0.2 | -6 | -23* | -1.6* | i | 0.6 | 0.8 | 0.66 | -3 | -16*
Cc1ccccc1NC(=O)Oc1cccc(OC(=O)c2ccccc2)c1
    0.9 | -1 | -4 | -0.5 | i | -1.0 | 1.6 | 0.67 | 0 | 0
Cn1c2ccccc2c2ncn(CCCN3CCOCC3)c(=O)c21
    x | -3 | x | x | x | 0.3 | -34 | 0.67 | 20 | x
CCSC1=NC(=O)/C(=C2/C=Cc3ccccc3N2CC)S1
    x | 9 | x | x | x | 0.3 | -1.5 | 0.73 | 5 | x
CCOC(=O)N1CCc2c(sc(NC(=O)CCS(=O)(=O)c3ccccc3)c2C(N)=O)C1
    0.0 | -19 | 6 | 1.8 | i | -0.5 | 0.6 | 0.67 | 21 | 6
O=C(c1ccccc1)N1CCN(Cc2ccc3c(c2)OCO3)CC1
    0.1 | -5 | 4 | -4.0 | i | 1.4 | 3.2 | 0.67 | -22 | 4
O=C(c1cccc(Br)c1)N1CCN(S(=O)(=O)N2CCCCC2)CC1
    -2.7 | x | 0 | -3.2 | i | x | 2.1 | 0.67 | -2 | 1
O=C(CCCCn1c(=O)[nH]c2ccccc2c1=O)N1CCN(c2cccc(C(F)(F)F)c2)CC1
    x | x | x | x | x | 0.0 | 3.4 | 0.67 | 35 | x
Cc1ccc(C)c(NC(=O)CCC(=O)NNC(=O)COc2cc(C)ccc2C)c1
    -6.0 | 2 | 9 | 0.3 | i | 0.6 | 2.2 | 0.74 | 5 | 15
Cc1ccc(NC(=O)c2ccc(Oc3ncccn3)cc2)cc1
    -2.9 | -6 | x | x | i | -1.4 | 2.4 | 0.68 | -3 | x
CCN(CC(=O)Nc1c(F)cccc1F)C(=O)CSCc1c(C)noc1C
    9.8 | x | 5 | -0.2 | i | 0.5 | 1.2 | 0.68 | -2 | 6
CCc1ccc(CNC(=O)C(=O)NCC2CCCO2)cc1 (stereo not given)
    -2.2 | -4 | 12 | -10 | i | -0.4 | 1.0 | 0.71 | -6 | 9
CCCOc1ccccc1C1CC(=O)NC2=C1C(=O)CCC2 (stereo not given)
    x | 5 | x | x | x | 0.5 | 6.1 | 0.75 | -8 | x
COc1ccc(-c2nnc(NC(=O)c3cccs3)s2)c(OC)c1
    -33 | -2 | 12 | -4.4 | i | -0.8 | -33 | 0.67 | -8 | -3
Cn1c(SCC(=O)Nc2ccc3c(c2)OCCO3)nnc1-c1ccccn1
    x | 8 | x | x | x | -0.5 | 4.2 | 0.72 | -2 | x
Cc1c(C(=O)NCc2ccccn2)sc2nc(-c3ccccc3)cn12
    -0.2 | -4 | -13 | -7.1 | i | 0.4 | 2.2 | 0.66 | -28 | -18
COC(=O)CSc1nnc(NC(=O)CCc2ccccc2)s1
    -0.1 | -7 | 8 | -0.7 | i | -0.3 | 1.6 | 0.68 | -2 | 6
CCOc1ccc(-n2cnnn2)cc1S(=O)(=O)Nc1c(C)cccc1C
    4.4 | -4 | -10 | -3.4 | i | 0.9 | 0.9 | 0.65 | -10 | -3
CCCCOC(=O)c1cccnc1
    1.9 | -4 | -8 | -8.5 | i | 0.5 | 7.1 | 0.74 | -15 | -10
CC1CCCCC1NC(=O)c1ccc(CSc2nc3ccncc3[nH]2)cc1 (stereo not given)
    0.5 | 0 | 2 | -1.2 | i | -0.3 | 3.5 | 0.72 | 8 | -2
COc1ccc(S(=O)(=O)N2CCN(C(=O)c3ccc([N+](=O)[O-])o3)CC2)cc1
    -1.3 | x | -5 | -3.0 | i | 1.1 | 6.7 | 0.7 | 56* | 8

Filtered by structure: those above containing a CF3 group (2)
Results follow in this order: AF4-AF9 inh | Beta cell apopt | rRNA inh HTS | rRNA inh HTS RFP | FGF22 binding | A1 inh | UCH37 DUB inh | Ecoli growth | T cruzi repl | rRNA inh HTS OD600
O=C(O)CS(=O)(=O)c1ccc(C(F)(F)F)cn1
    1.8 | x | 9 | 0.8 | i | 0.6 | 5.0 | 0.7 | -8 | 1
O=C(CCCCn1c(=O)[nH]c2ccccc2c1=O)N1CCN(c2cccc(C(F)(F)F)c2)CC1
    x | x | x | x | x | 0.0 | 3.4 | 0.67 | 35 | x
